Cruzain Triton – qHTS Assay for Promiscuous and Specific Inhibitors of Cruzain (with detergent); purified cruzain, Z-FR-AMC fluorescence, 0.01% Triton; Potency, µM, without a hit: max response, negative = inhibition, usual class: inhibitors; 200,000 compounds, 0.43% hits; active = well fitted curve in the direction sought with a large enough effect; inconclusive = small, poorly fitted or top-dose-only effect, or another doubt; inactive = no such curve, though single readings can be large; an effect the other way counts as inactive or inconclusive;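 also: plate controls were neutral wells for no effect and buffer without enzyme for full effect; nearly all actives have a fitted effect of over 40% in size; top concentration of the series not given in the record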
Target sequence (P25779 123-467 limits assumed): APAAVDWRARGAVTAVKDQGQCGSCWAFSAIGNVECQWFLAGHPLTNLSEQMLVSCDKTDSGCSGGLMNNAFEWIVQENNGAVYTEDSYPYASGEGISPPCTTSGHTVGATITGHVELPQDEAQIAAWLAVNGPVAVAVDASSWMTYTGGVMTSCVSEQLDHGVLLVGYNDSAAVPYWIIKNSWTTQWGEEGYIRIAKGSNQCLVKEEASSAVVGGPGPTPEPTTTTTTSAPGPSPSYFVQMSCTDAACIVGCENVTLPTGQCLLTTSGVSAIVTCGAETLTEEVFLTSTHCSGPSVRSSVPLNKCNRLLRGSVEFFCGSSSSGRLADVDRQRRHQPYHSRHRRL
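15 min RT preincubation of 1.5 nM cruzain with compound, then 2 uM Z-FR-AMC added; kinetic AMC fluorescence, 60 s delta. Triton X-100 0.01%, pH 5.5.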
RE007 growth inh – qHTS Assay for Inhibitors of the HIV-1 protein Vpr; S. pombe RE007 Vpr strain, BacTiter-Glo ATP luminescence, 24 h; control for the full effect not named in the record; Potency, µM (series often up to 92.2 µM), without a hit: at the highest dose activity change, negative = less growth; 360,000 compounds, 0.21% hits; AID 651644, 2012; active = well fitted falling curve with a large enough effect; inconclusive = small, poorly fitted or top-dose-only effect; inactive = no such curve, though single readings can be large or run the other way;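 also: % is scaled to controls: 0 for no effect and ±100 for the full control effect; nearly all actives have a fitted effect of over 50% in size; the assay follows cell death caused by Vpr and the record does not say whether a fall means rescue or toxicity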
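Fission yeast strain RE007, carrying one chromosomally integrated HIV-1 vpr copy, was seeded at OD 0.01 in PMG+AL medium with 23 nL pinned compound. After 24 h at 30 °C and 99% humidity, viability was read by BacTiter-Glo luminescence.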
Marburg entry inh – qHTS for inhibitors of binding or entry into cells for Marburg Virus. Marburg virus pseudotyped entry inhibition, cell reporter; control for the full effect not named in the record; about a third of the inactives were read at about 46 µM. Potency, µM (top dose mostly 37.8 µM), for inactives: top-dose activity change, negative = inhibition, usual class: inhibitors. 300,000 compounds, 1.8% hits; active = well fitted inhibition curve with a large enough effect; inconclusive = small, poorly fitted or top-dose-only effect, or effect the other way; inactive = flat fitted curve, though single readings scatter; tested in HEK293 cells; about a fifth of its hits are not listed in these tables; also: % is scaled to controls: 0 for no effect and ±100 for the full control effect; luciferase read-out
Lassa entry inh – qHTS for Inhibitors of binding or entry into cells for Lassa Virus; AID 540256, 2011; Potency, µM (titrated, usually from 37.9 µM), for the others: at the top dose activity change, negative = inhibition, usual class: inhibitors; Lassa virus pseudotype entry inhibition, cell reporter; control for the full effect not named in the record; 300,000 compounds, 1.2% hits; active means well fitted inhibition curve with a large enough effect; inconclusive means small, poorly fitted or top-dose-only effect, or effect the other way; inactive means flat fitted curve, though single readings scatter; tested in HEK293 cells; also: % is scaled to controls: 0 for no effect and ±100 for the full control effect; nearly all actives have a fitted effect of over 50% in size; luciferase read-out
NS1 function inh – qHTS Assay for Inhibitors of Influenza NS1 Protein Function; Potency, µM (highest dose often 46.1 µM), for inactives: at the top dose activity, positive = more growth; S. cerevisiae slowed by influenza A NS1, growth recovery by OD600; 270,000 compounds, 0.4% hits; also: actives are rising curves; nearly all actives have a fitted effect of over 50% in size
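A cell-based growth assay was used: compounds that relieve NS1-induced slow growth of budding yeast raise OD600. Assay medium was yeast nitrogen base with ammonium sulphate and -URA supplement, pH 6.0, with 2% galactose.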
Cruzain inh noDet – qHTS Assay for Promiscuous and Specific Inhibitors of Cruzain (without detergent); Cruzipain (Trypanosoma cruzi), P25779; purified cruzain, Z-FR-AMC fluorescence, no detergent; Potency, µM, for inactives: max response, negative = inhibition, usual class: inhibitors; 200,000 compounds, 2.3% hits; AID 1476, 2009; active = well fitted curve in the direction sought with a large enough effect; inconclusive = small, poorly fitted or top-dose-only effect, or another doubt; inactive = no such curve, though single readings can be large; an effect the other way counts as inactive or inconclusive;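 also: plate controls were enzyme without inhibitor for no effect and buffer without enzyme for full effect; nearly all actives have a fitted effect of over 40% in size; top concentration of the series not given in the record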
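Detergent-free condition (0.00005% Triton X-100) in acetate buffer pH 5.5 with DTT. 1.5 nM enzyme and compound were pre-mixed 15 min, then 2 uM Z-FR-AMC substrate added; reaction progress from fluorescence change between first and third reads (60 s).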
StopGo reporter – High Throughput Screening for Foot and Mouth Disease Virus Antivirals. human cells with a luciferase reporter of 2A StopGo recoding; control for the full effect not named in the record. Potency, µM (titrated, usually from 57.9 µM), without a hit: at the highest dose signal change, negative = less light. 410,000 compounds, 1.2% hits; active = well fitted falling curve with a large enough effect; inconclusive = small, poorly fitted or top-dose-only effect; inactive = no such curve, though single readings can be large or run the other way; tested in HEK293T cells; also: % is scaled to controls: 0 for no effect and ±100 for the full control effect; nearly all actives have a fitted effect of over 45% in size; luciferase light after 4 h
SARS PLP yeast – qHTS of Yeast-based Assay for SARS-CoV PLP; S. cerevisiae expressing SARS-CoV PLpro, growth rescue; control for the full effect not named in the record; Potency, µM (highest dose often 32.9 µM), inactives show at the highest dose activity, positive = growth rescue; 330,000 compounds, 0.19% hits; also: 0% is about no effect; nearly all actives have a fitted effect of over 55% in size; growth read by luminescence after 48 h
Numbers without * were called inactive; ? = inconclusive; nt = not tested or not shown; [ ] = remark or other dose. Unless noted, calls follow the shape of the dose curve; as a rule, active means well fitted rising curve with a large enough effect; inconclusive means small, poorly fitted or top-dose-only effect; inactive means no such curve, though single readings can be large or run the other way. Potency is read from the fitted curve at half-maximal effect.

SMILES	Lassa entry inh	Cruzain inh noDet	SARS PLP yeast	Cruzain Triton	NS1 function inh	RE007 growth inh	StopGo reporter	Marburg entry inh
CC(C)c1ccc(NC(=O)NCc2ccc(F)cc2)cc1	nt	nt	0%	nt	-3%	-9%	22%	nt
COc1ccc(C2/C=C\CN(C(=O)c3ccc(C)cc3)[C@H](Cc3ccccc3)C(=O)N2Cc2ccc(F)cc2)cc1 (stereo partly specified)	nt	nt	-3%	nt	-8%	9%	?	nt
CC1=C(C(=O)Nc2ccccc2)C(c2cccc([N+](=O)[O-])c2)Nc2nc3ccccc3n21 (stereo unspecified)	3%	1%	1%	-9.4%	4%	-4%	?	-29%
CCC1SC2=NCN(c3ccccc3)CN2C1=O (stereo unspecified)	nt	2%	-3%	3.2%	3%	nt	nt	-2%
O=C(O)Cc1ccc2ocnc2c1	10%	3%	-4%	0.7%	14%	11%	-12%	-4%
CNC(=S)c1cc(C(C)(C)C)c(O)c(C(C)(C)C)c1	nt	nt	-1%	nt	3%	7%	-4%	nt
O=C(CC1SC(=NCCc2ccccc2)N(/N=C/c2cccs2)C1=O)Nc1ccc(Cl)cc1 (stereo unspecified)	?	13µM*	19%	-5.7%	1%	-16%	2%	-27%
O=C(CNS(=O)(=O)c1cccs1)N1CCN(c2cccc(C(F)(F)F)c2)CC1	-22%[46.1 µM]	5%	nt	-7.1%	nt	nt	-28%	nt
COC(=O)c1cc(OC(=O)CCc2ccc(OC)c(OC)c2)cc(C(=O)OC)c1	16%[46.1 µM]	nt	6%	nt	-8%	-3%	-9%	0%[46.1 µM]
COc1ccc(C(=O)Nc2ccc(-c3cc(C(F)(F)F)nn3-c3ccccc3)cc2)cc1OC	?	17%	nt	-1.9%	nt	nt	?	nt
CN(C(=O)COC(=O)C1=COCCO1)c1c(N)n(Cc2ccccc2)c(=O)[nH]c1=O	10%	nt	-2%	nt	nt	-1%	-8%	1%
CSCC[C@H](NC(=O)Nc1ccc(C)cc1)C(=O)O	10%	2%	1%	0.4%	?	15%	nt	-2%
CCCCNC(=O)C(Sc1ccccc1)c1ccccc1 (stereo unspecified)	17%	7%	-1%	-3.7%	11%	10%	-11%	7%
CCOc1cc(/C=N/NC(=O)c2cc(C)[nH]n2)ccc1OC(=O)c1ccc([N+](=O)[O-])cc1	nt	-1%	2%	3.8%	0%	nt	nt	2%
Cc1ccc(CSCC(=O)NCc2ccco2)cc1	1.4µM*	nt	2%	nt	nt	-5%	4%	-11%
CC(=O)N/C(=C/c1ccc2c(c1)OCO2)C(=O)Nc1ccccc1	6%[46.1 µM]	-1%	4%	-4.5%	-1%	3%	27%	?
Cc1ccc(C(=O)NC2CC(=O)N(c3ccc4c(c3)OCCO4)C2)cc1[N+](=O)[O-] (stereo unspecified)	-1%	nt	7%	nt	nt	10%	-10%	-3%
Cc1ccc(S(=O)(=O)Nc2ccc(N3CCOCC3)nc2)cc1	?	nt	14%	nt	6%	5%	-3%	-4%[46.1 µM]
Cc1ccc(C(=O)Nc2nc3nc(C)cc(=O)n3[nH]2)cc1	?	-11%	nt	3.3%	nt	nt	-7%	-28%[46.1 µM]
c1ccc(CN2CCOCC2)cc1	1%	10%	?	3.2%	-1%	-11%	nt	-4%
O=C(CN1CCCCC1)N1c2ccccc2CCc2ccccc21	0%	2%	6%	9.0%	-5%	0%	?	?
CC(=O)OC1C(N2CCCCC2)c2c(ccc(/C=C/C(=O)N3CCCCC3)c2O)OC1(C)C (stereo unspecified)	-1%	nt	-2%	nt	3%	-4%	49%[activator]	?
COC(=O)c1cc(OC)c(OC)cc1NC(=O)Nc1cccc(C(C)=O)c1	-5%	nt	0%	nt	6%	-4%	12%	-16%
CCCC(=O)NC(Nc1ccccc1F)C(Cl)(Cl)Cl (stereo unspecified)	nt	-6%	-6%	2.6%	-8%	nt	nt	4%
O=C1CN(C(=O)c2cccc(Br)c2)c2ccccc2N1	?	nt	1%	nt	13%	9%	-23%	?
COc1cc2c(cc1OC)-c1cc(N3CCc4ccccc43)nc(=O)n1CC2	?	nt	0%	nt	-2%	1%	-30%	?
Cc1ccc(CNC(=O)COC(=O)c2cccnc2Cl)cc1	-9%[46.1 µM]	nt	-22%	nt	nt	14%	-1%	?
O=S(=O)(N/N=C/c1ccc(Cl)cc1)c1ccc(Cc2ncc(C(F)(F)F)cc2Cl)s1	2%	-8%	-24%	-11%	17%	-5%	98%[activator]	4%[46.1 µM]
COc1ccc(S(=O)(=O)N2CCCCCC2)cc1NC(=O)CN1C(=O)NC(C)(c2ccc(C)cc2)C1=O (stereo unspecified)	-7%	nt	-5%	nt	nt	7%	-5%	?
C=CCn1c(CNc2ccc(C)cc2)nnc1SCC(=O)N/N=C/c1ccc(O)cc1	-16%	2%	4%	-0.4%	7%	-5%	-11%	?
CCc1nn(CC(=O)N2CCN(c3cccc(C)c3)C(C)C2)c(=O)c2cc3sccc3n12 (stereo unspecified)	nt	23%	nt	-2.9%	nt	nt	-23%	?
COc1ccc(Cl)cc1NC(=S)NCc1ccccn1	1%	5%	-4%	-1.5%	7%	-20%	13%	?
COC(=O)c1cc(S(=O)(=O)N2CCN(c3cc(Cl)ccc3C)CC2)c[nH]1	8%[46.1 µM]	?	nt	-11%	nt	nt	-4%	nt
S=C(Cc1ccccc1)Nc1ccccc1	16%	nt	nt	nt	nt	-20%	24%	-29%
O=C(Nc1nc2ccccc2s1)C1CCCN1S(=O)(=O)c1ccc(Cl)cc1 (stereo unspecified)	2%	?	-22%	-3.7%	-45%	-8%	-6%	-20%
CCn1cc2nc(SCc3cccc(C(F)(F)F)c3)n(CCc3ccccc3)c(=O)c2n1	0%[46.1 µM]	4%	nt	-2.6%	nt	nt	-19%	nt
O=C(COC(=O)C1CCCCC1)NCc1ccc(Cl)cc1	-1%[46.1 µM]	nt	-1%	nt	nt	-20%	-9%	-15%[46.1 µM]
COc1ccccc1NC(=O)CCC(=O)Nc1nnc(C(F)(F)F)s1	3%	-25%	0%	5.1%	12%	12%	-7%	?
COc1ccc(-c2ccc3ccccc3n2)cc1OC	-11%	nt	-2%	nt	-16%	?	39%[activator]	-1%[46.1 µM]
Cc1cc(N2CCN(c3ccccn3)CC2)n2nc(C)nc2n1	-8%	nt	nt	nt	1%	0%	-22%	-4%[46.1 µM]
CC(=O)NC(NC(=S)Nc1ccc(N=Nc2ccccc2C)cc1C)C(Cl)(Cl)Cl (stereo unspecified)	-19%	7.9µM*	-2%	-3.5%	-11%	-14%	20%	?
Cc1ccc2nc3c(nc2c1)-c1ccccc1C3=O	?	0%	-14%	-3.8%	-57%	?	26%	10%
COc1cccc(C(=O)Nc2nc3nc(C)c(Cc4ccccc4)c(=O)n3[nH]2)c1	-2%[46.1 µM]	-3%	nt	3.9%	nt	nt	-4%	-4%[46.1 µM]
CC(C)Nc1nc(NC(C)C)nc(C(N)=O)n1	15%	-3%	1%	3.4%	-2%	8%	3%	?
CC1(C2CC2)NC(=O)N(CC(=O)Nc2ccccc2F)C1=O (stereo unspecified)	9%	nt	-6%	nt	nt	-3%	-8%	16%
COC(=O)c1c(NC(=O)CCCOc2ccccc2)sc2c1CCC(C)C2 (stereo unspecified)	3%[46.1 µM]	0%	nt	-4.6%	nt	nt	-14%	8%[46.1 µM]
Cc1nnn(-c2nonc2N)c1C(=O)N/N=C/c1ccccc1O	-6%	-10%	13%	1.3%	5%	13%	-7%	?
O=C(CCn1cnc(-c2ccccc2)c1-c1ccccc1)N/N=C/c1ccc(O)cc1	?	3%	8%	-6.1%	-12%	1%	?	?
CSc1nsc(SC)c1NC(=O)N1CCCCC1	8%	-10%	-4%	5.7%	10%	-8%	4%	-21%
CC(C)CCN1CC(=O)N2Cc3[nH]c4ccccc4c3C[C@H]2C1=O	-15%[46.1 µM]	nt	-3%	nt	1%	17%	-4%	-27%[46.1 µM]
CCCCCn1c(=O)[nH]c2cc(C(=O)N3CCN(c4ccc(C(C)=O)cc4)CC3)ccc2c1=O	-16%[46.1 µM]	nt	-2%	nt	0%	6%	?	?
CCOC(=O)Cn1ncc(-c2ccccc2)c1N	?	-4%	-21%	-1.6%	-2%	0%	65%[activator]	21%
CCOc1ccccc1N=Cc1c(O)c2ccccc2oc1=O	nt	nt	15%	nt	-4%	-11%	14%	nt
COc1ccc(N2C(=O)C(CC(=O)O)S/C2=N\N=C\c2cccs2)cc1 (stereo unspecified)	20%[46.1 µM]	nt	1%	nt	0%	-16%	-6%	?
Cc1ccc(-c2cc(C(=O)NN=C3CCCC3)c3ccccc3n2)cc1	-7%	-6%	-3%	-6.5%	2%	5%	12%	-23%[46.1 µM]
Cn1nc(C(=O)NCCN2CCOCC2)c2ccccc2c1=O	-22%[14.3 µM]	-2%	1%	0.6%	13%	-3%	-23%	10%
CCOC(=O)C1(CCOc2ccccc2)CCN(Cc2cnc(C)s2)CC1	?	nt	-3%	nt	5%	4%	-19%	?
COc1ccc(OC)c(C(=O)CSc2nnc(Cc3cccs3)n2CCc2ccccc2)c1	?	-3%	2%	-9.4%	3%	5%	15%	?
O=c1nc2n(c3sc4c(c13)CCCC4)C(CBr)CS2 (stereo unspecified)	-2%	-6%	0%	-1.9%	10%	17%	0%	-26%
Cc1nnc(N2CCC(C(=O)NCc3ccc(N(C)C)cc3)CC2)c2nn(-c3ccccc3)c(C)c12	?	1%	nt	-0.2%	nt	nt	-7%	nt

Screens: PubChem BioAssay, National Center for Advancing Translational Sciences (NCATS)
